Assay outcomes (PubChem)
Mtb H37Rv = Mycobacterium tuberculosis H37Rv growth inhibition, putative kinase inhibitor library, confirmatory dose response (AID 2842); inhibition, % at 10 µg/mL; hits with a dose series show IC90 in µg/mL; 24,000 compounds, 5.2% hits; M. tuberculosis H37Rv growth inhibition; higher % means a stronger effect; some inactives read as strong as hits;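 active = confirmed in a dose series; about a fifth of its hits are not listed in these tables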;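 also: bacteria incubated one week before Alamar blue readout; 0% = bacteria only wells and 100% = bacteria with high antibiotic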
Starred values were filed as active, the others as inactive.

SMILES	Mtb H37Rv
Cc1ccc(-c2nnc(NC(=O)C(Br)C(C)C)s2)cc1 (stereo not drawn)	5%
CCOC(=O)c1nn(-c2ccccc2)c(=O)c2c(NC(=O)c3ccc(Cl)c([N+](=O)[O-])c3)scc12	-4%
O=C(c1ccc(Cl)cc1)N1CCN=C1SCc1cccnc1	6%
CCOc1cc(S(=O)(=O)NCc2cccnc2)ccc1Cl	7%
Cc1ccc(NC(=O)c2cccc(Nc3nc(-c4ccccc4)c4cc(Br)ccc4n3)c2)cc1	72%
COc1ccc(N2CCN(c3ncnc(N)c3[N+](=O)[O-])CC2)cc1	-10%
CCOC(=O)N1CCN(c2cc(=O)n(-c3ccc(OC)cc3)c(=O)[nH]2)CC1	-4%
NS(=O)(=O)c1ccc(NC(=O)CSc2nnc(-c3sc4ccccc4c3Cl)o2)cc1	-6%
O=C(CSc1ncnc2c1nnn2Cc1ccccc1F)Nc1cccc(F)c1	2%
O=C(c1ccco1)N1CCN(C(c2ccc(F)cc2)c2sc3ncnn3c2O)CC1 (stereo not drawn)	0%
COC(=O)c1ccc(C2c3c(oc4ccc(F)cc4c3=O)C(=O)N2c2cc(C)on2)cc1 (stereo not drawn)	-9%
O=C(/C=C/c1cccc([N+](=O)[O-])c1)Nc1nnc(-c2ccc3c(c2)OCCO3)o1	85%

In a second layout: entries from further up.
> O=C(c1ccco1)N1CCN(C(c2ccc(F)cc2)c2sc3ncnn3c2O)CC1 (stereo not drawn)
  Mtb H37Rv: 0%

> COC(=O)c1ccc(C2c3c(oc4ccc(F)cc4c3=O)C(=O)N2c2cc(C)on2)cc1 (stereo not drawn)
  Mtb H37Rv: -9%

The results go on.
SMILES	Mtb H37Rv
Cc1ccc(-c2nnc(NC(=O)c3ccccc3F)o2)c(C)c1	1.3µg/mL*
CC(C)(C)c1csc(NC(=O)c2ccc(S(=O)(=O)N3CCCCCC3)cc2)n1	31%
Cc1ccc(NC(=O)c2oc3ccccc3c2NC(=O)c2cccc([N+](=O)[O-])c2)cc1	11%
COC(=O)c1cccc(NC(=O)Nc2ccccc2C)c1	-14%
O=C(Nc1nnc(-c2ccc(F)cc2)s1)C1CCCCC1	5%
O=c1ccnc(N2CCN(C(c3ccccc3)c3ccccc3)CC2)[nH]1	-6%
NC(=O)CSc1ccc2nnc(-c3ccc(F)cc3)n2n1	-11%
O=C(Nc1nnc(-c2ccc(Br)cc2)o1)c1ccco1	30%
Cc1cc(NC(=O)CSc2nnc3sc4ccccc4n23)no1	-12%
Cc1ccc(C(=O)CSc2n[nH]c(C)n2)c(C)c1	12%
O=C(Nc1ncc(Cc2ccc(F)cc2)s1)c1cc2ccccc2o1	-6%
O=c1nc(NCc2cccnc2)cn[nH]1	-5%
COc1ccc(Cl)cc1NC(=O)CSc1ccc2nnc(-c3ccc(C)cc3)n2n1	-5%
O=C(CCN1C(=O)c2ccccc2S1(=O)=O)Nc1cccc(F)c1	3%
Cc1ccc2cc(CCNC(=O)c3ccccc3Cl)c(=O)[nH]c2c1	-2%
Cc1ccsc1/C=N/NC(=O)Cn1nnc2ccccc21	7%
Cc1cc(C)c2nc(NNC(=O)COc3ccccc3)sc2c1	37%
O=C(c1cccs1)N1N=C(c2ccc(NS(=O)(=O)c3ccccc3)cc2)CC1c1cccs1 (stereo not drawn)	8%
O=C(COc1ccccc1/C=C1\SC(=O)NC1=O)Nc1ccc(Cl)cc1	37%
COc1ccc(C2CC(c3ccc(O)cc3)=NN2C(C)=O)cc1OC (stereo not drawn)	-3%
COc1cc(NS(=O)(=O)c2ccc(NC(=O)Nc3ccccc3)cc2)nc(OC)n1	-8%
CC1CCN(C(=O)COc2ccc3c(=O)c(-c4ccc(Cl)cc4)coc3c2)CC1	5%
Cc1ccc(-n2nnc3c(=O)n(CC(=O)c4ccccc4)cnc32)cc1Cl	-12%
Clc1ccccc1-c1nnc(Nc2nc3cc4c(cc3s2)OCO4)o1	4%

2 records drawn at random from the list so far, as already listed:
SMILES	Mtb H37Rv
Cc1ccsc1/C=N/NC(=O)Cn1nnc2ccccc21	7%
O=C(COc1ccccc1/C=C1\SC(=O)NC1=O)Nc1ccc(Cl)cc1	37%

More compounds.
SMILES	Mtb H37Rv
COc1ccccc1OCC(=O)NC1CC(=O)N(c2ccccc2)C1 (stereo not drawn)	-1%
O=C(COc1ccc(Cl)cc1)N1CCN(c2ccc(N3CCOCC3)nn2)CC1	-3%
CCCCC(=O)NCCc1cc2c(C)ccc(C)c2[nH]c1=O	5%
O=C(CCn1c(=S)[nH]c2ccccc2c1=O)NCc1ccccc1	-6%
O=C1NC(c2ccncc2)Nc2ccccc21 (stereo not drawn)	-10%
CC1=C(C(=O)Nc2ccccn2)C(c2cccc(O)c2)NC(=S)N1 (stereo not drawn)	-20%
CCOC(=O)c1c(NC(=O)c2cc(Cl)ccc2[N+](=O)[O-])sc(C)c1C	-14%
O=C(CSc1nnc2ccc(-c3cccs3)nn12)c1ccc(Cl)cc1	-10%
COc1ccc(CCNc2ncnc(N)c2[N+](=O)[O-])cc1OC	1%
COc1ccc(C(=O)Nc2nnc(-c3ccccc3C)s2)cc1OC	6%
Cc1nnc(SCC(=O)N2CCCCCC2)n(N)c1=O	10%
Cc1cccc(S(=O)(=O)N2CCSC2c2cccc([N+](=O)[O-])c2)c1 (stereo not drawn)	-11%

An excerpt from above in order of length of the SMILES, largest number first:
SMILES	Mtb H37Rv
NS(=O)(=O)c1ccc(NC(=O)CSc2nnc(-c3sc4ccccc4c3Cl)o2)cc1	-6%
O=C(c1ccco1)N1CCN(C(c2ccc(F)cc2)c2sc3ncnn3c2O)CC1 (stereo not drawn)	0%
O=C(CSc1nnc2ccc(-c3cccs3)nn12)c1ccc(Cl)cc1	-10%
O=C(CCn1c(=S)[nH]c2ccccc2c1=O)NCc1ccccc1	-6%
Cc1ccc(C(=O)CSc2n[nH]c(C)n2)c(C)c1	12%

Additional compounds follow.
SMILES	Mtb H37Rv
COc1ccc(C(=O)Oc2cc(C)[nH]c(=O)c2[N+](=O)[O-])cc1OC	-2%
COc1ccc(-c2nnc3c4cc5c(cc4n(Cc4cccc(F)c4)cc2-3)OCO5)cc1	27%
CN(C1CCCCC1)S(=O)(=O)c1ccc(C(=O)Nc2sccc2C(N)=O)cc1	-5%
COc1ccccc1NC(=O)c1oc2ccccc2c1NC(=O)c1ccc(Cl)c([N+](=O)[O-])c1	4%
CCCCC(=O)Nc1nnc(-c2ccccc2C)s1	16%
Cc1ccc(Nc2nc(N3CCN(C)CC3)nc3nccnc23)cc1Cl	-1%
O=C(CNc1n[nH]c(=O)[nH]c1=O)N/N=C/c1ccccn1	-8%
COc1ccc(C(=O)c2cn(Cc3cccc(F)c3)c3ccccc3c2=O)cc1	-2%
C/C=C/Cn1c(=O)c2c(nc3n2C(C)C(C)=NN3CC(N)=O)n(C)c1=O (stereo not drawn)	6%
N#CC1=C(SCC(=O)Nc2ccc(Br)cc2)NC(=O)CC1c1ccccc1Cl (stereo not drawn)	-17%
COC(=O)Nc1ccc(S(=O)(=O)Nc2nc(C)cc(C)n2)cc1	-2%
O=S(=O)(Nc1cccc(-c2ccc3nncn3n2)c1)c1cccs1	6%
Cc1ccc(S(=O)(=O)Nc2ccccc2C(=O)Nc2nc(-c3ccc(C)c(C)c3)cs2)cc1	6%
Nc1ncnc(Nc2ccc(Nc3ccccc3)cc2)c1[N+](=O)[O-]	6%
CC1=C(C(=O)Nc2ccccc2C)C(c2ccccc2)NC(=O)N1 (stereo not drawn)	-3%
CCOc1ccc(/C=N/Nc2ncnc3nc[nH]c23)cc1	8%
Cn1c(=O)c2c(SCC(=O)NCc3ccc(F)cc3)ccnc2n(C)c1=O	-10%
O=C(NCc1cccs1)c1ccc(Cn2c(=O)[nH]c3ccsc3c2=O)cc1	-1%
Cc1csc2nc(O)c(C(=O)NCc3ccc4c(c3)OCO4)c(=O)n12	-13%
O=C(Nc1ccc2c(c1)OCO2)c1oc2ccccc2c1NC(=O)c1c(F)cccc1F	-1%
O=C(CSc1nnc(-c2ccncc2)o1)N1CCCCC1	14µg/mL*
O=C(Nc1nnc(-c2ccco2)o1)c1ccc([N+](=O)[O-])cc1	36µg/mL*
Cc1nc2cc(NC(=O)c3ccc(S(=O)(=O)N4CCC(C)CC4)cc3)ccc2s1	5%
Cc1nn2c(C(=O)NCc3ccccc3)c(C(=O)Nc3cc(Cl)cc(Cl)c3)sc2nc1=O	8%
O=C(Cc1csc(NC(=O)C2CC2)n1)Nc1cccc(C(F)(F)F)c1	6%
O=C1C2ON(c3ccccc3)C(c3cc(Br)ccc3O)C2C(=O)N1c1ccccc1Cl (stereo not drawn)	-3%
CC(C)(C)c1ccc(C(=O)Nc2nnc(-c3ccncc3)o2)cc1	1.2µg/mL*
Cc1cccc(-n2nnc3c(=O)n(CC(=O)Nc4ccc5c(c4)OCO5)cnc32)c1	6%
O=C(Cn1c(=O)c2ccc(Cl)cc2n2nncc12)Nc1ccc2c(c1)OCO2	2%
Nn1c(SCC(=O)N2CCc3ccccc32)nncc1=O	-2%
O=C(CSc1ccc2nnc(-c3cccc(F)c3)n2n1)NCc1ccc2c(c1)OCO2	5%
O=C(CSc1ccc(-c2ccc(-n3ccnc3)cc2)nn1)Nc1ccc2c(c1)OCO2	-13%
Cc1cccc(NC(=O)C(=O)Nc2cc3c4c(c2)CCC(=O)N4CCC3)c1C	82%
Cn1c(Cn2c(=O)sc3ccccc32)nnc1SCC(=O)O	5%
O=C(O)CC1C(=O)NCCN1Cc1ccc2ccccc2c1 (stereo not drawn)	1%
CC1Cc2nc(SCC(=O)NCc3ccccc3)n(C)c(=O)c2S1 (stereo not drawn)	-9%
Cc1[nH]c2ccc(F)cc2c1CCNC(=S)Nc1ccc(I)cc1	84%
O=C(CSc1nnc2ccc(-c3ccccc3)nn12)NCc1ccc(F)cc1	-9%
Cc1ccc(Cl)cc1N1CCN(CCn2c(C)c(C)n3c4c(=O)[nH]c(=O)n(C)c4nc23)CC1	50µg/mL*
COc1ccc(C(=O)CSc2ccc3nnc(-c4ccc(C)cc4)n3n2)cc1	-17%
COc1ccc2nc(-c3ccc(NC(=O)c4ccc(F)c(F)c4)cc3)cn2n1	4%
Cc1ccc(NC(=O)c2ccc(S(=O)(=O)N(C)C)cc2)c(C)c1	4%
CCC(=O)Nc1sc2c(c1-c1nc3ccccc3s1)CCCC2	11%
CN1CCc2c(sc(NC(=O)CS(=O)(=O)c3ccccc3)c2C(N)=O)C1	-3%
Cc1ccc(-n2nc3c(c2NC(=O)c2ccc(OC(C)C)cc2)CS(=O)C3)cc1 (stereo not drawn)	11%
CCCc1cc(=O)[nH]c2nnc(SCc3c(F)cccc3Cl)n12	-2%
O=C(COc1cccc2c1CCN(Cc1ccc(Cl)cc1)C2=O)Nc1ccc2c(c1)OCO2	18%
COc1ccccc1NC(=O)c1oc2ccccc2c1NC(=O)c1ccc2ccccc2c1	-1%
CCOC(=O)c1nn(-c2ccc(Cl)cc2)c(=O)c2c(NC(=O)c3cc(Cl)ccc3[N+](=O)[O-])scc12	6%
CCOC(CNc1ncnc2c1cnn2-c1ccc(C)cc1)OCC	26µg/mL*
O=C(CCc1ccccc1)Nc1c(C(=O)Nc2ccc3c(c2)OCCO3)oc2ccccc12	11%
CN1C(=O)c2ccc(NC(=O)c3ccc(S(=O)(=O)N4CCCCCC4)cc3)cc2C1=O	-9%
COC(=O)C1=C(N)Oc2cc(C)n(CC3CCCO3)c(=O)c2C12C(=O)Nc1ccccc12 (stereo not drawn)	-24%
Cc1ccc2cc(CCNC(=O)c3ccc4ccccc4c3)c(=O)[nH]c2c1C	-1%
CCOC(=O)c1[nH]c2ccccc2c1NC(=S)Nc1ccc(OC(F)(F)F)cc1	8%
COc1ccc(-c2nnc3ccc(SCC(N)=O)nn23)cc1OC	1%
Cc1ccccc1NC(=O)c1sc2nc3c(cc2c1N)C(=O)CCC3	-2%
COc1cccc2c(=O)n(CC(=O)NCc3ccccc3)ccc12	4%
CN1C(=O)c2cccc(NC(=O)c3ccc(Br)s3)c2C1=O	6%
O=C(Nc1nnc(-c2ccc(Br)cc2)s1)c1ccccc1C(F)(F)F	3%

Carrying on:
SMILES	Mtb H37Rv
Cc1ccc(C(=O)NCCc2cc3cc(C)c(C)cc3[nH]c2=O)cc1C	1%
O=C(O)c1cccc(S(=O)(=O)/N=C2/C=C(NS(=O)(=O)c3ccccc3)C(=O)c3ccccc32)c1	-6%
CCOC(=O)c1nn(-c2ccc(C)cc2)c(=O)c2c(NC(=O)c3c(F)cccc3Cl)scc12	12%
CCOc1ccc2c(c1)c(=O)c(S(=O)(=O)c1ccc(OC)cc1)cn2Cc1cccc(F)c1	8%
CC1CCCN(S(=O)(=O)c2ccc(C(=O)Nc3nc4ccc5ccccc5c4s3)cc2)C1 (stereo not drawn)	15%
O=c1nc(SCc2cccc3ccccc23)c2c(n1CCO)CCCC2	49%
CCOC(=O)C1=C(C)N=c2s/c(=C3\C(=O)Nc4ccc(Br)cc43)c(=O)n2C1c1cccs1 (stereo not drawn)	-2%
O=C(COc1ccc(Cl)cc1)N=Nc1c(O)[nH]c2ccc(Br)cc12	61%
C=CCn1c(SCC(=O)NCc2cccnc2)nc2sc3c(c2c1=O)CCCC3	19%
CN1CCc2c(sc(NC(=O)c3ccc(Br)s3)c2C(N)=O)C1	10%
O=C(CSc1ncnc2sc3c(c12)CCCC3)Nc1ccc(Br)cc1	-6%
COC(=O)c1nnn(-c2ccc(OC)cc2)c1C(=O)OC	-4%

Only part of the results is shown, so the mix of outcomes need not match the whole.
